# Sfp inh: inhibitors of Bacillus subtilis Sfp phosphopantetheinyl transferase | Q9F4F7 | hit rate 3.5% among 310,000 | Biochemical Sfp PPTase activity, qHTS | Potency, µM, inactives show max response, negative = inhibition, hits mostly inhibitors; active = well fitted inhibition curve with a large enough effect; inconclusive = small, poorly fitted or top-dose-only effect, or another doubt; inactive = no such curve, though single readings can be large or run the other way;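 note: the enzyme is Sfp with the accession as filed and its product quenches rhodamine fluorescence; potency is the fitted concentration of half-maximal effect; 0% = enzyme reaction without inhibitor and -100% = no enzyme wells; top concentration of the series not given in the record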
#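 Compounds were incubated with enzyme (final 15 nM) for 15 min at room temperature before substrate addition started the reaction. Fluorescence at 525 nm excitation, 598 nm emission was recorded immediately and after 30 minutes.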
# ClpP mod: qHTS Assay for Activators of ClpP; hit rate 1.9% among 340,000; AID 651965, 2013; ATP-dependent Clp protease proteolytic subunit (Bacillus subtilis (strain 168)), P80244; purified B. subtilis ClpP, FRET peptide cleavage, 20 min; Potency, µM (series often up to 57.5 µM), for the others: at the highest dose activity change, negative = active; active = well fitted falling curve with a large enough effect; inconclusive = small, poorly fitted or top-dose-only effect; inactive = no such curve, though single readings can be large or run the other way; note: potency is the fitted concentration of half-maximal effect; the source files actives as falling curves though it sought activators and does not explain the sign; nearly all actives have a fitted effect of over 65% in size; many hits overshoot -100%
# Target sequence (P80244 whole entry, looked up): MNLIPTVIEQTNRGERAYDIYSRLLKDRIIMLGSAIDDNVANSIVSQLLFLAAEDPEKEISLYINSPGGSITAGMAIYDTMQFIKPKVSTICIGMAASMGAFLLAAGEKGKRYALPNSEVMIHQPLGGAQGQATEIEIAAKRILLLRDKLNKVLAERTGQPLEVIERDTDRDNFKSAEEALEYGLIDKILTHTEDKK
#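 ClpP 10 microg/mL final, pH 8 Tris/KCl buffer with BSA, glycerol, Tween-20; compound pinned in; FRET-FV substrate; RT 20 min; Ex320/Em430; ΔFRET vs ADEP 5.8 microM, DMSO, no enzyme.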
# gsp agonist: activates gsp, the McCune-Albright syndrome mutation; gsp mutant cells, cAMP HTRF, 30 min; control for the full effect not named in the record; hit rate 0.13% among 340,000; Potency, µM (titrated, usually from 76.9 µM), for inactives: at the top dose activation (cAMP increase), actives largely listed as activators; AID 624287; active = well fitted activation curve with a large enough effect; inconclusive = small, poorly fitted or top-dose-only effect, or another doubt; inactive = no such curve, though single readings can be large or run the other way; cell line not stated here;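 note: phosphodiesterase inhibitor Ro 20-1724 added with compounds to block cAMP breakdown; potency is the fitted concentration of half-maximal effect; nearly all actives have a fitted effect of over 60% in size; about a fifth of the inactives were tested at one dose only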
#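 Cells stably selected in G418 were plated at 2000/well, grown 16-24 hr, then given compounds in DMSO with the PDE inhibitor […] (300 uM solution added) for 30 min at 37C; cAMP was read by HTRF.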
# D2 ag: activates the human D2 dopamine receptor | AID 624465 | P14416 | hit rate 0.084% among 360,000 | activation, % (concentration not given with the values) | DiscoveRx PathHunter D2 beta-arrestin, luminescence, 90 min; 100% = 57 uM dopamine signal; in the data active = activation above about 40%; inconclusive = about 15% to 40%; inactive = below about 15%; note: compound concentration not given in the record; the text of the record calls up to 30% inactive
# Target sequence (P14416 whole entry, looked up): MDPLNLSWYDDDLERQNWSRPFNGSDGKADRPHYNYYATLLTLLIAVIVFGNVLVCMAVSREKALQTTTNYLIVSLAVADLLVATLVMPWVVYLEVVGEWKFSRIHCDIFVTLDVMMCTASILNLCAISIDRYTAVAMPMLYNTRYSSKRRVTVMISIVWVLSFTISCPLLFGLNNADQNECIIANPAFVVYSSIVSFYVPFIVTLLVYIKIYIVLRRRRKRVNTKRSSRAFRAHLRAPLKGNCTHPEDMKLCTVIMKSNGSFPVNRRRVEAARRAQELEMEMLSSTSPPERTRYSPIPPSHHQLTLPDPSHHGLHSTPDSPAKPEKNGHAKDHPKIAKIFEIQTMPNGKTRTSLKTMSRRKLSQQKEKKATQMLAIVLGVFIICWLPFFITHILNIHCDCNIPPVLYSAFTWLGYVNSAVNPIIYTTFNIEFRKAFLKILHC
#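 DiscoveRx PathHunter D2 beta-arrestin cells (2,100/well) attached overnight, then compound-stimulated 90 min at 37 C in HBSS/10 mM HEPES/0.1% Tween-20 buffer; beta-galactosidase complementation read by luminescence after 1 h at ambient temperature. Dopamine 57 uM final (EC100) as control.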
# gsp antagonist: gsp mutant antagonism | gsp-mutant cells, cAMP HTRF, 30 min; control for the full effect not named in the record | Potency, µM (doses to about 76.9 µM), without a hit: top-dose activity change, negative = inhibition, actives largely listed as inhibitors | hit rate 0.4% among 340,000 | AID 624288; active = falling curve of any shape with a large fitted effect; inconclusive = falling curve, mostly with a smaller effect; inactive = flat or rising curve; cell line not stated here;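 note: intracellular cAMP measured with PDE inhibitor Ro 20-1724 present during compound exposure; potency is the fitted concentration of half-maximal effect; % is set by controls: 0 for no effect and ±100 for the full control effect; nearly all actives have a fitted effect of over 65% in size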
#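 Cells, 2000/well, grown 16–24 h in DMEM 10% FBS with 0.5 mg/ml G418, then compounds plus […] (300 uM addition stock), 30 min at 37C. cAMP read by HTRF (cAMP-d2 and anti-cAMP antibody-K in lysis buffer) after 30 min RT.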
# Menin-MLL FL inh: menin-MLL binding inhibition, fluorescein peptide; 290,000 tested, under 10 active; FP activity change, % at 61.4 µM; Fluorescence polarization, fluorescein-MLL peptide displacement from menin; inconclusive = falling polarisation curve, or a change in total fluorescence; inactive = total fluorescence flat and polarisation flat or rising; no compound was filed as active; the % refers to the polarisation; negative = inhibition;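 note: % of control where 0% means no effect; inhibitors lower the polarisation; unlabelled MLL peptide was the positive control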
# PINK1 modulator: modulators of PINK1 expression; PINK1 immunofluorescence, high-content cytometry, 24 h; Potency, µM (doses to about 76.6 µM), for inactives: at the top dose activation (PINK1 increase), usual class: activators; hit rate 0.2% among 410,000; AID 624263; active = well fitted activation curve with a large enough effect; inconclusive = small, poorly fitted or top-dose-only effect; inactive = flat fitted curve, though single readings scatter; cell line not stated here;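 note: potency is the fitted concentration of half-maximal effect; % of control where 0% means no effect; nearly all actives have a fitted effect of over 65% in size; a mitochondrial uncoupler was the plate control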
#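 PINK1 protein level read as immunofluorescence by microplate cytometer in a fixed, stained stable cell line after 24 h exposure to five compound concentrations, with CCCP as control.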
# Numbers without * were called inactive; ? = inconclusive; nt = no result given; [ ] = dose if it differs, or a comment.
smiles | Sfp inh | ClpP mod | gsp agonist | D2 ag | gsp antagonist | Menin-MLL FL inh | PINK1 modulator
O=C1CS/C(=N\NC(=O)c2ccccc2)N1 | -11.1% | nt | -5.9%[15.4 µM] | 2.0 | 6.6% | 3.1 | 0.7%
COC(=O)C1=C(C)N(C)C(=O)NC1c1ccc(O)c(OC)c1 (configuration not stated) | -4.0% | -1.9% | -59.5%[inhibitor] | -3.4 | 8.1% | 1.7 | 0.0%
O=C(COC(=O)CSc1ccc([N+](=O)[O-])cc1)NC1CCCCCCC1 | nt | -2.2% | -16.6% | -3.4 | -13.1% | nt | 3.3%
CC1(C)CC(=O)C/C(=N\NC(=O)c2cccs2)C1 | -3.5% | 0.9% | ? | -2.6 | -11.2% | -3.0 | 0.3%
COC(=O)NC1CCC(CC2CCC(NC(=O)OC)CC2)CC1 (configuration not stated) | 20.6% | -0.7% | -2.9% | -1.5 | -1.1% | 1.2 | -0.5%
O=c1c2ccccc2nc(SCc2nnc(-c3ccccc3)o2)n1-c1ccccc1 | 4.4% | -9.3% | 3.9% | -1.3 | 1.4% | -3.0 | nt
CNC(=O)CSc1nnnn1-c1ccc(C)cc1C | 5.0% | -1.0% | -2.7% | -2.1 | -5.4% | 1.1 | -0.5%
COC(=O)c1ccccc1NC(=O)N1c2ccccc2Sc2ccccc21 | -0.3% | ? | 13.1% | -0.6 | -8.7% | 5.0 | 2.3%
Cc1ccc(C(=O)C[n+]2cccc3ccccc32)cc1 | 13.2% | ? | -2.4% | -3.3 | 2.7% | ? | 0.2%
CCCNC(=O)Cn1nc(C)n2c(cc3cc(F)ccc32)c1=O | 4.1% | 3.1% | -16.2% | 1.0 | 4.0% | 0.0 | 0.2%
Cc1cc(Nc2ccccc2F)n2nc(C)nc2n1 | 27.7% | -0.3% | ? | -2.7 | 5.8% | 0.2 | -0.4%
Fc1ccc(C2c3[nH]c4ccccc4c3CCN2Cc2cccn2-c2ncccn2)cc1 (configuration not stated) | 3.0% | nt | 3.6%[15.4 µM] | -3.2 | -10.6% | -0.9 | ?
CN(CC(=O)NC(=O)NC1CCCCC1)Cc1ccccc1 | nt | 3.1% | -0.4% | -1.2 | 4.2% | nt | 0.9%
CC(C)CC1C(=O)N(Cc2cn(CCC3OCCO3)nn2)CCS(=O)(=O)N1Cc1ccc(-c2ccc(F)cc2)cc1 (configuration not stated) | nt | 0.5% | ? | 8.2 | nt | nt | 0.6%
CC(=O)c1cc(NC(=O)c2ccc([N+](=O)[O-])cc2)c(=O)oc1C | 15.8µM* | nt | -0.3%[15.4 µM] | -2.3 | -3.9% | 4.0 | 1.2%
COc1cccc(SCc2noc(C(=O)NCC3CCCO3)c2C(=O)O)c1 (configuration not stated) | 11.5% | -1.8% | nt | -3.8 | -7.0% | 0.3 | -0.8%
Cc1cc(N2C(=O)CC(C(C)c3ccccc3)C2=O)no1 (configuration not stated) | 6.7% | 2.6% | -8.2% | -1.3 | 0.5% | 4.0 | -1.2%
CN(CCOc1ccccc1)CC(=O)Nc1ccc(Cl)c(S(=O)(=O)N(C)C)c1 | 56.2µM* | nt | -7.7%[15.4 µM] | 5.2 | -6.6% | 3.0 | -0.8%
Cc1cc(Br)cn2c(Cc3cccc(F)c3)c(-c3ccc(Cl)cc3)nc12 | nt | -3.8% | nt | -5.8 | nt | nt | 4.9%
CC(CN1CCN(CCOCCO)CC1)CN1c2ccccc2Sc2ccc(Cl)cc21 (configuration not stated) | nt | -0.4% | -10.1% | 2.7 | nt | nt | -1.1%
CCOC(=O)C1=C(C)NC(C)=C(C(=O)OCC)C1/C=C/c1ccccc1OC | 13.6% | -28.9% | -1.0% | -0.1 | 27.6% | 0.4 | ?
C[C@@H]1CCCCO[C@@H](CN(C)Cc2ccccc2)[C@@H](C)CN([C@H](C)CO)C(=O)c2cc(NC(=O)Nc3cccc4ccccc34)ccc2O1 | nt | ? | -25.4% | 14.8 | nt | nt | 2.6%
COc1ccc(S(=O)(=O)N(C)C[C@@H]2Oc3c(NS(=O)(=O)c4cn(C)cn4)cccc3C(=O)N([C@@H](C)CO)C[C@@H]2C)cc1 | nt | -8.5% | nt | -0.1 | 10.7% | nt | 1.3%
CS(=O)(=O)N1CCc2ccc(NC(=O)C3CCCO3)cc2C1 (configuration not stated) | 4.6% | -4.3% | 12.2% | -1.8 | 15.1% | nt | 0.5%
O=C(c1ccccc1Br)N1CCN(Cc2ccc3c(c2)OCO3)CC1 | 11.9% | 0.6% | 5.4%[15.4 µM] | -3.8 | -3.1% | 0.2 | 1.0%
O=C(Nc1ccc(F)cc1)N1CCn2c(nc3ccccc32)C1 | 10.3% | -2.1% | -2.4% | -1.4 | 0.8% | -4.7 | 4.9%[38.3 µM]
CCOC(=O)c1c(NC(=O)COC(=O)c2nccnc2N)sc2c1CCC2 | nt | -26.7% | -15.0% | 0.4 | -1.2% | nt | 2.5%
NC(Cc1ccccc1)c1csc(Nc2ccc(C(F)(F)F)cn2)n1 (configuration not stated) | nt | -6.9% | nt | 1.2 | nt | nt | -0.9%
CCCCN(C(=O)C1CCN(C(=O)c2ccccc2C)CC1)c1c(N)n(CCCC)c(=O)[nH]c1=O | 28.7% | 3.0% | -19.7% | 1.0 | -2.2% | nt | -0.3%
COc1ccc(CCNC(=O)c2cc3c(=O)n(C)c4ccccc4c3n2C)c(OC)c1 | -8.6% | 3.3% | -19.4% | -5.5 | -0.8% | 1.1 | 5.0%
O=C(NC1CCS(=O)(=O)C1)C1CCCCN1S(=O)(=O)c1ccc(Cl)cc1 (configuration not stated) | -21.8% | 0.7% | -2.5% | -1.0 | 5.1% | -1.3 | -1.7%[38.3 µM]
CC(C)CN(C(=O)c1ccc(N2CCCC2=O)cc1)c1c(N)n(Cc2ccccc2)c(=O)[nH]c1=O | nt | -9.4% | 18.2% | -1.2 | 10.5% | nt | -0.1%
CCC(Cc1ccccc1)OC(=O)c1ccccc1C(=O)O (configuration not stated) | nt | nt | -2.9% | 1.5 | 7.5% | nt | -3.0%
COC(=O)C1=C[C@@H](C(=O)OC)[C@@H]2C3=C(C(=O)[C@@]2(C)NC(=O)c2ccccc2)[C@H](c2ccccc2)n2c(=O)n(-c4ccccc4)c(=O)n2[C@@H]3C1 | nt | -0.6% | nt | -0.3 | -20.8% | nt | -0.7%
CNC(=S)N/N=C(\C)c1ccc(C)c(C)c1 | ? | -3.1% | 11.3%[15.4 µM] | -2.4 | 4.3% | 7.1 | 4.4%
Cc1noc(C)c1S(=O)(=O)N(C)C[C@H]1Oc2ccc(NC(=O)C3CC3)cc2C(=O)N([C@H](C)CO)C[C@@H]1C | nt | -0.3% | -1.4% | -1.8 | 2.6% | nt | 0.4%
CCCCC1OC23CCCCC2C(C#N)(C#N)C1(C#N)C(=N)O3 (configuration not stated) | -0.6% | -85.5% | ? | -4.8 | 4.6% | ? | 3.0%
Cc1nc(N2CCCCC2)[nH]c(=O)c1CN(C)N=O | nt | -5.0% | 15.8% | -1.3 | nt | nt | 1.4%
Cc1ccc(O)c(/C=N/NC(=O)CN2CCCC2)c1 | 8.0% | -7.7% | 2.5% | 9.9 | 0.7% | 3.6 | 1.2%
COc1cc(S(=O)(=O)NCCCN2CCOCC2)ccc1Cl | 19.3% | 1.4% | -18.4% | -1.7 | 1.3% | 4.8 | nt
Cc1c(C(=O)NCc2ccccn2)oc2ccccc12 | 6.1% | -2.3% | 23.7% | -3.3 | 9.2% | 4.0 | ?
CC1CCC(NC(=O)CN(C)S(=O)(=O)c2ccc3c(c2)c(=O)n(C)c(=O)n3C)CC1 (configuration not stated) | 13.0% | -2.6% | 5.4% | 4.0 | -4.1% | nt | -0.5%
Cc1ccc(-n2c(C)nnc2SCC(=O)NC2CC2)cc1 | 4.6% | -0.4% | ? | -0.3 | 1.4% | nt | 1.4%
Cc1cc(NC(=O)c2cccc(S(=O)(=O)N3CCCCCC3)c2)n(-c2ccccn2)n1 | 7.4% | -27.0% | -1.7% | -0.8 | 1.8% | 1.7 | 4.1%
Cn1c(N=Cc2ccc([N+](=O)[O-])cc2)c(N)c(=O)n(C)c1=O | nt | -6.9% | ? | 0.4 | -3.0% | nt | -3.4%
COc1ccc(NC(=O)Cc2nc3ccccc3[nH]2)cc1 | 11.6% | ? | 1.3% | 5.1 | 2.3% | 0.3 | 1.8%
CN(C(=O)CSc1nc2c(c(=O)[nH]1)CCC2)c1ccccc1 | 10.7% | 0.0% | 13.9% | 0.5 | -8.7% | 0.9 | -1.1%
Cc1ccc(NC(=O)NNC(=O)c2cc3ccccc3cc2O)cc1 | -6.0% | -4.0% | 23.5% | -2.0 | -2.1% | -1.7 | -0.1%
CC(C)[C@H](NC(=O)NCCc1ccccc1)C(=O)O | 7.5% | -0.2% | 4.6% | -0.4 | 0.4% | 0.5 | 2.6%
CCc1nc2ccccc2c(C(=O)O)c1C | -11.9% | -0.9% | 10.3% | 2.0 | 6.6% | 1.4 | 1.4%
Cc1ccc(-c2nc(CS(=O)CC(=O)NCc3ccccn3)c(C)o2)cc1 (configuration not stated) | -8.4% | -10.5% | 2.4% | -2.1 | 2.2% | -0.5 | 0.9%
C=CCOc1ccccc1CNCCCN1CCOCC1 | -19.4% | -2.6% | 1.5% | -1.2 | 12.9% | 1.3 | 3.1%[38.3 µM]
S=c1[nH]nc(-c2cccc3ccccc23)n1-c1cccnc1 | -17.3% | nt | 3.0%[15.4 µM] | -3.5 | -14.2% | -2.5 | 2.1%
COC(=O)c1ccc(CSc2nc3cc(Cl)ccc3s2)o1 | 1.0% | 0.0% | -1.3% | -0.8 | -4.0% | 0.3 | 12.4%
CCCOC(=O)c1ccc(Nc2cc(C)nc3ncnn23)cc1 | 8.3% | -3.4% | -0.5% | -2.4 | -9.9% | 3.3 | 3.5%
COc1ccc(CC(=O)NNC(=O)c2cccs2)cc1 | -6.5% | nt | 21.4% | 0.5 | -3.5% | 6.2 | -0.6%
CN(C)C/C=C/C(=O)Nc1cccc(-c2c[nH]c3ncnc(Oc4ccc(NC(=O)CC(=O)Nc5ccc(F)cc5)cc4F)c23)c1 | nt | -4.7% | nt | -2.3 | -5.1% | nt | -0.4%
